Assay outcomes as filed in PubChem BioAssay.
RecA splice inh = Mtb RecA intein splicing inhibition; 0.75% of 290,000 active; P9WHJ3; AID 2221; cell-free RecA intein splicing, fluorescence; inhibition, %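 (about 9 µM by stock and volumes)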; in the data active = inhibition above about 30%; inconclusive = no clear call, values can overlap the other calls;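 note: 0% = vehicle wells and 100% = reference inhibitor control wells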
Target sequence (P9WHJ3 whole entry, looked up, canonical isoform): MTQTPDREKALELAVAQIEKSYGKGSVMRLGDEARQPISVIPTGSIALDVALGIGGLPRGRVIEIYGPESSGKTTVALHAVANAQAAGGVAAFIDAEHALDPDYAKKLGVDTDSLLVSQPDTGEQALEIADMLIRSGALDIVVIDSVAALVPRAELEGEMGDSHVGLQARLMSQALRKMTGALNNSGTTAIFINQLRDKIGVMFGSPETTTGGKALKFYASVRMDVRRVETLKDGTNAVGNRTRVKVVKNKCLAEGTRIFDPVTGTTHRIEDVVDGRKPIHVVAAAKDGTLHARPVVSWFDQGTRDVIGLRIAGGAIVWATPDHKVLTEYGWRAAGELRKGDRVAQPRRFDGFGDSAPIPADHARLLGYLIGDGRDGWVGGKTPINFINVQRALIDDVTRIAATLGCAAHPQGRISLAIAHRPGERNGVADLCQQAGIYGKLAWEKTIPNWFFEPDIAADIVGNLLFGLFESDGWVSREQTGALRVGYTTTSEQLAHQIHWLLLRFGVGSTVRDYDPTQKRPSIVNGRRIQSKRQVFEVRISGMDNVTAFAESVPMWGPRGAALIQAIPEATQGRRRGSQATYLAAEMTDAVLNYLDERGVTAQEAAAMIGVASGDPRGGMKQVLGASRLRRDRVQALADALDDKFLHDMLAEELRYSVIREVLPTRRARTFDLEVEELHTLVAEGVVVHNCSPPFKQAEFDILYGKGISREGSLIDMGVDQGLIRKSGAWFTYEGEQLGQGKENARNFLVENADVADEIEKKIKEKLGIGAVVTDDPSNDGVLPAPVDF
Arbovirus inh = antivirals against arbovirus infection; 0.37% of 200,000 active; arbovirus infection cell-based antiviral screen; inhibition, % at 10 µM;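 active = inhibition from about 30%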;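 note: bluetongue infection of BSR cells; cell survival read as ATP light after 72 h; 0% = infected wells without compound and 100% = uninfected wells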
YopH PTP inh = blocks Yersinia enterocolitica YopH tyrosine phosphatase. AID 898. fluorescence Ex485/Em525. 0.16% of 140,000 active. inhibition, %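 (about 10 µM by stock and volumes)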;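 active = inhibition of 50% or more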;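 note: controls were vehicle for no effect and minimum signal wells for full effect; inactives centre near -20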
Mtb bLac sens = beta-lactam sensitization of Mtb H37Rv | 0.27% of 330,000 active | AID 434955 | M. tuberculosis H37Rv growth with meropenem, percent inhibition; hits of this screen are not shown here | inhibition, % at 25 µM;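 active = about 74% or more and at least 40 points above the plate without the antibiotic, then above 30% in a dose series; inconclusive = first-round hits that could not be retested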;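 note: growth measured after seven days incubation then overnight dye step; 0% = bacteria only wells and 100% = bacteria with antibiotic; twin plates without the antibiotic show which effects depend on it; some results filed as inactive read as strong as hits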
Mtb H37Rv = M. tuberculosis H37Rv growth inhibitors, H37Rv strain (AID 1626); M. tuberculosis H37Rv growth inhibition; higher % means a stronger effect; inhibition, % at 10 µM; hits with a dose series show IC50 in µM; 0.95% of 220,000 active;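 active = confirmed in a dose series; inconclusive = inhibition above 80% but not taken into the dose series; inactive = below 80% or under 30% at every dose of the series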;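 note: bacteria incubated seven days before Alamar blue readout; 0% = bacteria only wells and 100% = bacteria with antibiotic wells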
Arbovirus inh repeat = also measured in Arbovirus inh; calls as there; inhibition, %; measured here: 10K subset replicate screen; many hits read low in the repeat;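 first of two repeat runs on a subset; 0% = infected and 100% = uninfected wells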
The depositor's hits bear a star; u = inconclusive; x = no result given.

SMILES | RecA splice inh | Arbovirus inh | YopH PTP inh | Mtb bLac sens | Mtb H37Rv | others
O=C(NCCCN1CCOCC1)C(Cl)(Cl)Cl | 1.9 | 3.0 | -21.8 | -2.8 | -9.1%
CCC(C)c1ccc(NC(=O)CN(C)CC(=O)Nc2cccc(OC)c2)cc1 (centres undefined) | 0.2 | -9.7 | x | 32.5 | 72.3%
COc1ccc(Cn2c(-c3ccco3)nc3oc4ccccc4c(=O)c3c2=O)cc1 | 0.6 | -1.3 | -33.8 | -7.3 | -6.0%
CCOC(=O)n1c(=O)n(Cc2cccc(C)c2)c2ccccc21 | -6.7 | -3.1 | x | -2.8 | 4.1%
CCOC(=O)c1ccccc1NC(=O)C1CSC2(C)CCC(=O)N12 (centres undefined) | 0.5 | x | x | u | x
COC(=O)CCCNC(=O)c1ccc(S(=O)(=O)NCc2ccco2)cc1 | -1.1 | x | x | -4.1 | x
Cn1c(CNC2CCCCC2)c(C#N)c2ccccc21 | 0.2 | 13.6 | -54.8 | -0.1 | -7.6%
CCCCC(=O)Nc1ccc(C(=O)Nc2nc(CC(=O)OCC)cs2)cc1 | -1.5 | 2.7 | -9.6 | 21.6 | 63.6%
C=CCOC(=O)C1=C(C)Nc2nc3ccccc3n2C1c1ccncc1 (centres undefined) | 2.3 | 3.0 | -44.9 | -0.9 | 4.4%
CN=c1scc(-c2ccc([N+](=O)[O-])cc2)n1/N=C/c1ccco1 | 0.6 | -3.7 | x | 2.9 | 1.1%
COc1ccc(CCNC(=O)c2ccc3nc4cc(Cl)ccc4c(=O)n3c2)cc1OC | -11.5 | x | x | 2.4 | x
C=CCN(c1ccccc1)S(=O)(=O)c1c(C)[nH]c(=O)[nH]c1=O | -2.3 | -0.2 | x | -12.3 | 3.5%
Cc1ccc(NC(=O)c2cc(-n3cnnc3)ccc2Cl)c(C)c1 | 3.8 | 0.0 | 4.7 | 21.2 | -3.5%
O=c1cc(-c2ccccc2)[nH]c2nc3ccccc3n12 | -2.0 | -27.2 | -1.0 | u | -6.3%
NC(=O)CCCc1nc(-c2ccccc2Cl)no1 | -3.3 | 0.0 | -115.1 | -11.7 | 1.3%
CN(Cc1ccccc1)C(=O)COC(=O)c1cc(S(=O)(=O)N(C)C)ccc1N1CCCC1 | 1.7 | x | x | -12.3 | x
CCn1c(=O)cc(O)c2c(=O)n(C)c(=O)n(C)c21 | -1.3 | 1.9 | -28.0 | -9.9 | x
CN(C)S(=O)(=O)c1cccc(C(=O)Nc2cc(Cl)ccc2O)c1 | 2.3 | 11.0 | 13.2 | -3.0 | 1.7%
CCOC(=O)N1CCN(S(=O)(=O)c2ccc(F)c(C(=O)Nc3ccc(C(C)C)cc3)c2)CC1 | -0.8 | 5.6 | -26.0 | 7.6 | -1.1%
COc1ccc(NC(=O)CCC(=O)NCc2ccco2)c([N+](=O)[O-])c1 | -0.8 | x | x | 2.2 | x
N#Cc1ccc(NC(=O)c2nc(-c3ccccc3)n(-c3ccccc3)n2)cc1 | -3.9 | -5.1 | 1.4 | -5.6 | -2.6%
COc1ccc2[nH]c(CN3CCC(n4nccc4NC(=O)C4CC4)CC3)c(C)c2c1 | -0.9 | x | x | 0.7 | x
Cc1ccc(C(=O)NCC(=O)OCC(=O)N2CC(C)OC(C)C2)cc1 (centres undefined) | -5.3 | x | x | 1.8 | x
O=C(CN1C(=O)CCSc2ccccc21)Nc1cccc(F)c1 | 1.6 | -4.3 | -7.8 | -2.9 | 1.7%
COc1ccc(/C=C2/C(=O)N(c3ccccc3)N=C2C)c(OC)c1 | 70.0* | x | x | -0.3 | x

Reprinted from the part before: five compounds, followed by the next part.
SMILES | RecA splice inh | Arbovirus inh | YopH PTP inh | Mtb bLac sens | Mtb H37Rv | others
N#Cc1ccc(NC(=O)c2nc(-c3ccccc3)n(-c3ccccc3)n2)cc1 | -3.9 | -5.1 | 1.4 | -5.6 | -2.6%
COc1ccc2[nH]c(CN3CCC(n4nccc4NC(=O)C4CC4)CC3)c(C)c2c1 | -0.9 | x | x | 0.7 | x
Cc1ccc(C(=O)NCC(=O)OCC(=O)N2CC(C)OC(C)C2)cc1 (centres undefined) | -5.3 | x | x | 1.8 | x
O=C(CN1C(=O)CCSc2ccccc21)Nc1cccc(F)c1 | 1.6 | -4.3 | -7.8 | -2.9 | 1.7%
COc1ccc(/C=C2/C(=O)N(c3ccccc3)N=C2C)c(OC)c1 | 70.0* | x | x | -0.3 | x
Cc1c(C(=O)Nc2cccc(S(=O)(=O)N3CCCC3)c2)oc2ccccc12 | -5.3 | x | x | -2.3 | 0.8%
COc1ccc(CCNC(=O)CN2CCC(n3nnc4cc(F)ccc43)CC2)cc1OC | x | 3.8 | -39.3 | x | x
CC(OC(=O)CC1CCCC1)C(=O)Nc1ccc(S(N)(=O)=O)cc1 (centres undefined) | -0.1 | x | x | -1.9 | x
CCn1cc(S(=O)(=O)NCc2ccc(OC)cc2)cn1 | 0.6 | x | x | 5.4 | x
CCOC(=O)N1CCN(S(=O)(=O)c2ccc(C(=O)N(CCN(CC)CC)c3nc4c(C)cccc4s3)cc2)CC1 | 1.9 | x | x | 1.0 | x
CCc1nnc(NC(=O)NC(C)(C)C)s1 | -1.7 | 4.5 | -14.1 | -6.7 | -6.8%
O=c1c2ccccc2sn1-c1ccc(S(=O)(=O)N2CCCC2)cc1 | 1.9 | 0.9 | -29.5 | -4.1 | 0.4%
CCCc1nnc(SCc2ccc(C(=O)OC)o2)n1N | -1.8 | 11.4 | -14.5 | -14.8 | -0.7%
CCOc1ccc(NC(=O)Cn2nnc(C(=O)NCc3ccc(OC)cc3)c2N)cc1 | -1.3 | x | x | -3.3 | x
Cc1ccc(C(=O)CCC(=O)N2CCN(C(=O)c3ccco3)CC2)cc1 | -1.7 | 16.8 | x | -13.4 | 4.8%
COc1ccc(-c2nnc3n2N=C(C)CS3)cc1OC | -1.4 | 4.0 | -4.8 | -8.7 | -10.0%
Cc1sc2ncnc(N(C)CCc3ccccn3)c2c1C | -2.3 | x | x | -9.1 | -13.1%
CC(C)NS(=O)(=O)c1ccc(NC(=O)c2cccnc2)cc1 | -2.5 | 4.0 | x | -7.2 | x
O=C1NC2(O)C(=O)c3ccccc3C2(O)N1 (centres undefined) | -1.6 | -0.1 | x | -2.8 | -4.3%
CC(C)C(=O)Nc1ccc2c(c1)nc(CCN1CCN(C)CC1)n2C | -0.6 | 6.3 | -10.2 | 2.6 | -1.7%
CN1CCN(c2oc(-c3ccc([N+](=O)[O-])cc3)nc2C#N)CC1 | 3.0 | x | x | 4.5 | 6.5%
NC(=O)C1(N2CCCCC2)CCN(C2CC(=O)N(CCc3ccccc3)C2=O)CC1 (centres undefined) | -0.1 | 1.2 | -4.0 | 1.9 | -4.6%
CCOC(=O)CCC(NC(=O)c1cncc(O)c1)C(=O)OCC (centres undefined) | -1.5 | 8.0 | -35.2 | -0.9 | -5.1%
COc1cc2[nH]c(=O)n(CCC(=O)N3CCC(N4CCCCC4)CC3)c(=O)c2cc1OC | -2.7 | -2.2 | -17.7 | -7.5 | -6.7%
CC(=O)C12CC(C)=C(C)CC1CC1C3CCC4=CC(=O)CCC4(C)C3CCC12C (centres undefined) | 36.0* | x | x | 0.0 | x
CCCNC(=O)C1(CC2CC(c3ccccc3)=NO2)CCN(C(=O)C2(C)CC2)CC1 (centres undefined) | -0.9 | x | x | 1.9 | -8.0%
Cc1cccc(N2CCN(C(=O)c3ccc(CS(=O)Cc4ccc(Cl)cc4)o3)CC2)c1C (centres undefined) | 14.2 | x | x | 6.5 | x
CC1=C(C(=O)Nc2ccccc2C)C(c2ccc(C)o2)C2=C(CCCC2=O)N1 (centres undefined) | -1.6 | -1.5 | -22.6 | 0.8 | 1.1%
COc1ccc(C(=O)OCC(=O)c2ccc(C)c(S(=O)(=O)N3CCOCC3)c2)cc1OC | -5.9 | x | x | -1.0 | 1.9%
S=C(Cc1ccccc1)NCCc1ccccc1 | 1.0 | x | x | -6.8 | x
Going on with the list.
SMILES | RecA splice inh | Arbovirus inh | YopH PTP inh | Mtb bLac sens | Mtb H37Rv | others
CC(Sc1ccsc1[N+](=O)[O-])C(=O)NCCc1ccc(Cl)cc1 (centres undefined) | x | 3.9 | -15.7 | -3.3 | -3.0%
COc1ccc(-c2ccnc3c(C#N)cnn23)cc1 | -16.5 | -0.7 | x | 3.4 | 3.2%
Cc1ccc(S(=O)(=O)N(C)C)cc1NC(=O)COC(=O)c1ccc2c(c1)OCO2 | 0.0 | -9.6 | -24.3 | -1.5 | 3.2%
CC(C(=O)NCC1CCCCC1)N(C)CC(=O)Nc1ccc(N2CCOCC2)cc1 (centres undefined) | -3.7 | -6.2 | x | -0.1 | -5.0%
CN(Cc1ccccc1)C(=O)CCS(=O)(=O)c1ccc2c(c1)n(C)c(=O)c(=O)n2C | -1.4 | 0.1 | -32.8 | -1.5 | -9.6% | Arbovirus inh repeat=2.7
Cn1c(=O)c2c(nc(SCc3ccc(F)cc3)n2C)n(C)c1=O | -0.4 | x | x | 6.0 | x
COc1ccc(NC(=O)CSc2nc3c(cc2C#N)CN(C)CC3)cc1 | -1.1 | 1.1 | x | -3.2 | 1.1%
O=C(NNC(=O)c1ccncc1)Nc1cccc(C(F)(F)F)c1 | 3.2 | x | x | 18.1 | x
COc1ccc(Cn2c(CCC(=O)NCc3ccco3)nc3cccnc32)cc1 | 0.5 | 0.9 | -51.1 | x | -2.4%
Cc1cccc(NC(=O)c2cccc(N3C(=O)C4C5CCC(C5)C4C3=O)c2)c1C (centres undefined) | -0.1 | -0.7 | -25.6 | -2.1 | -15.3%
COc1cccc(CNc2ccc(F)c([N+](=O)[O-])c2)c1O | 4.8 | -1.3 | x | 3.4 | 6.6%
Cc1ccc(CCN=c2c([N+](=O)[O-])nn(-c3ccccc3)n2O)cc1 | 0.1 | -19.7 | x | 100.1 | u
Cc1ccc(NC(=O)CCN2CCN(CCO)CC2)cc1Br | 0.4 | 1.0 | x | 4.8 | x
O=C(Nc1ccccc1)N1CCc2ccccc2C1 | 3.6 | -14.5 | -5.8 | -9.9 | 5.6%
CCOC(=O)c1c(C)c(C(=O)NCc2ccccc2OC)c(C)n1C | 0.5 | 1.9 | -41.9 | 15.7 | -0.6%
CCC(C)N1CCCCC1C(=O)Nc1c(C)cc(C)cc1C (centres undefined) | -2.4 | 4.6 | -40.9 | -5.8 | -12.3%
CC(=O)/C(N=Nc1nc2c([nH]1)c(=O)n(C)c(=O)n2C)=C(\C)O | -6.6 | x | x | -5.2 | -2.7%
CCC(C)(C)NC(=O)CN(CCc1cccc(C)c1)C(=O)c1csnn1 | -2.2 | 1.8 | x | -3.6 | -5.8%
C/C(=N\Nc1ccc([N+](=O)[O-])cc1)c1ccc(-n2nncc2C)cc1 | -2.0 | -5.0 | -25.4 | 4.6 | 6.0%
CNC(=O)O/N=C(\N)Cc1csc2ccc(Cl)cc12 | 0.3 | x | x | -7.7 | -9.7%
CCCCNC(=O)C1C2C=CC3(CN(Cc4ccc(C)cc4)C(=O)C13)O2 (centres undefined) | x | -0.3 | -38.2 | 0.7 | -6.2% | Arbovirus inh repeat=0.4
Cc1ccc(C2=NN(S(=O)(=O)c3ccccc3)C(c3ccccc3O)C2)cc1 (centres undefined) | 8.5 | -33.3 | x | x | x
CC(=O)Nc1ccc(NC(=O)Cn2c(=O)n(-c3ccccc3)c(=O)c3oc4ccccc4c32)cc1 | 0.1 | 5.6 | x | 4.9 | -3.7%
C/C(CC(=O)Nc1ccc(Cl)cc1C(F)(F)F)=N\NC(=O)c1ccccn1 | -0.6 | x | x | 99.5 | x
c1ccc(-c2noc(CSc3nnc(Cc4cccs4)n3-c3ccccc3)n2)cc1 | 4.2 | -6.4 | -13.1 | -0.3 | -9.8%
Remaining list, next part
SMILES | RecA splice inh | Arbovirus inh | YopH PTP inh | Mtb bLac sens | Mtb H37Rv | others
COC(=O)[C@H](Cc1ccccc1)NC(=O)O[C@@H]1C(=O)c2cc(OC)ccc2O[C@H]1c1ccc(OC)c(Br)c1 | 6.1 | 32.3* | -14.4 | 1.0 | x
Cc1cc(NC(=O)c2cc3ccccc3oc2=O)no1 | x | 2.4 | -41.5 | x | u
Cc1cc(CSc2ccccc2)ccc1NC(=O)COc1ccccc1 | 1.1 | -25.8 | -13.9 | 94.2 | -7.7%
COc1ccc2c(c1)C(C)=CC(C)(C)N2C(=O)CN1C(=O)CCC1=O | -0.5 | 10.7 | 3.3 | -3.2 | 3.6%
COc1ccc(-c2nnc(Nc3ccc(S(=O)(=O)Nc4nccs4)cc3)c3ccccc23)cc1 | -1.1 | -12.1 | x | x | 2.7%
COc1ccc(OCC(=O)OCC(=O)Nc2ccc(S(=O)(=O)N3CCCCC3)cc2)cc1 | 2.6 | -7.2 | -42.5 | -7.2 | -0.1%

Not all compounds are listed, so the mix of outcomes need not match the whole.
